MT1-MMP reporter = MT1-MMP gene expression reporter suppression – cell-based, luciferase reporter, luminescence (AID 618); MT1-MMP promoter luciferase reporter cells, luminescence; calls from a first round at 10 µM; hits with a dose series show EC50 in µM; 87,000 tested, 0.62% active;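 active means over half of the reporter light lost at 10 µM or EC50 under 50 µM; inactive means the rest and hits that failed the dose series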;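 further: actives suppress MT1-MMP promoter-driven transcription so potencies describe inhibitors; HT1080 fibrosarcoma cells; overnight exposure; toxic or luciferase-blocking compounds were not removed from the actives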
WNV protease inh = inhibitors of West Nile virus NS2B-NS3 protease | 65,000 tested, 0.18% active | AID 577 | P06935 | WNV NS2B-NS3 protease, fluorogenic substrate Ex360/Em465; stronger effect = lower value | z-score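 (tested at a level between 10 and 100 µM)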;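 active means z-score at -3 or under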;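 further: score is relative to mean and spread of the compound wells of a plate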
Target sequence (P06935 1371-1501 limits assumed): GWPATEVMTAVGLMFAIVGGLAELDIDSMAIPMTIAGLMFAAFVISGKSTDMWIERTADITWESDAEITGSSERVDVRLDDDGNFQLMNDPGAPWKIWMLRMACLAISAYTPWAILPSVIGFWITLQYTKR
Target sequence (P06935 1502-1679 limits assumed): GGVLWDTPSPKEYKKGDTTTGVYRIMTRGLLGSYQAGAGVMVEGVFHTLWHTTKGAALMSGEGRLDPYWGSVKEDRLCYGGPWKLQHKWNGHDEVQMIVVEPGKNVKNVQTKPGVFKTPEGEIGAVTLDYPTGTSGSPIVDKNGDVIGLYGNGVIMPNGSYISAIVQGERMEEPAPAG
Hsc70 ATP site = Hsc70 inhibitors, probe displacement, primary screen, biochemical, fluorescence polarization (AID 568) | Hsc70 fluorescence polarization, probe displacement; higher % means a stronger effect; strong numbers were not always called active | one-dose displacement, % at 20 µM; IC50 in µM for titrated hits | 83,000 tested, under 10 active;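 active means displacement above 50% without optical interference and an IC50 on retest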;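 further: ATPase domain with a fluorescein-tagged ATP probe; 0% = vehicle and 100% = excess ADP; read after one hour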
Starred values were filed as active, the others as inactive.

Screening Cc1ccc(C)c(N2CCN(S(=O)(=O)c3c(C)noc3/C=C/N(C)C)CC2)c1 returned MT1-MMP reporter inactive, WNV protease inh -0.94 and Hsc70 ATP site -7.8%.
COCC(=O)n1cc(C(=O)OC)c2ccccc21 was read as MT1-MMP reporter inactive and Hsc70 ATP site 6.4%.
`COc1cc2[nH]c(=S)n(C3CCCC3)c(=O)c2cc1OC` gave MT1-MMP reporter inactive, WNV protease inh 0.22 and Hsc70 ATP site 1.4%.
Screening Cc1ccc(C2/C(=C(\O)c3c(C)nc4ccccn34)C(=O)C(=O)N2CCCN2CCOCC2)o1 (stereo not given) returned MT1-MMP reporter inactive, WNV protease inh -0.25 and Hsc70 ATP site 11.4%.
O=C(OCCN1C(=O)c2ccccc2C1=O)c1cc2ccccc2o1 was read as MT1-MMP reporter inactive, WNV protease inh 0.11 and Hsc70 ATP site 2.1%.
For CCOC(=O)CSc1nnc(NC(=O)c2cccc(S(=O)(=O)N3CCCCC3)c2)s1 the results were MT1-MMP reporter inactive, WNV protease inh -0.74 and Hsc70 ATP site 0.9%.
Screening N#CCc1nc(CSc2nc3ccccc3s2)cs1 returned MT1-MMP reporter inactive, WNV protease inh -0.03 and Hsc70 ATP site -4.0%.
For CCOC(=O)N1CCN(C(=O)Cc2ccc(C)cc2)CC1 the results were MT1-MMP reporter inactive, WNV protease inh -1.25 and Hsc70 ATP site -0.3%.
Screening CC1(C)C(=O)NCCN1C(=O)CSc1nccc(-c2ccc(Br)cc2)n1 returned MT1-MMP reporter inactive, WNV protease inh 0.33 and Hsc70 ATP site 3.8%.
For O=C(NCCSCc1ccccc1)c1cc(S(=O)(=O)N2CCOCC2)ccc1F the results were MT1-MMP reporter inactive, WNV protease inh -0.98 and Hsc70 ATP site -3.1%.
Screening O=S(=O)(Nc1ccc(N2CCCCC2)cc1)c1cccs1 returned MT1-MMP reporter inactive, WNV protease inh 1.69 and Hsc70 ATP site -2.8%.
Screening COc1ccc(C(C)(C)C)cc1NC(=O)C1CC=CCC1C(=O)O (stereo not given) returned MT1-MMP reporter inactive, WNV protease inh -0.36 and Hsc70 ATP site -2.7%.
COc1ccc(C2/C(=C(\O)c3ccc(OC)c(Cl)c3)C(=O)C(=O)N2CCN(C)C)cc1 (stereo not given) was read as MT1-MMP reporter inactive, WNV protease inh -0.34 and Hsc70 ATP site 2.7%.
OC(c1ccccn1)c1c[nH]c2ccccc12 (stereo not given) was read as MT1-MMP reporter inactive, WNV protease inh -0.06 and Hsc70 ATP site -0.1%.
COCCN1C(=O)c2ccc(C(=O)Nc3nccs3)cc2C1=O was read as MT1-MMP reporter inactive, WNV protease inh -0.67 and Hsc70 ATP site 1.0%.
O=S(=O)(NCCOC12CC3CC(CC(C3)C1)C2)c1cccc2nsnc12 was read as MT1-MMP reporter inactive, WNV protease inh -1.21 and Hsc70 ATP site 4.3%.
Screening CN1CCN(c2ccc(C(=O)c3ccc(F)cc3)cc2)CC1 returned MT1-MMP reporter inactive, WNV protease inh -1.1 and Hsc70 ATP site -2.6%.
`CCCn1c(SCC(=O)Nc2c(C)cccc2C)nnc1C(C)C` gave MT1-MMP reporter inactive, WNV protease inh 2.24 and Hsc70 ATP site 3.9%.
Screening CC(=O)c1c(C)[nH]c(C(=O)N2CCc3ccccc32)c1C returned MT1-MMP reporter inactive, WNV protease inh 0.88 and Hsc70 ATP site -7.2%.
For CCOC(=O)Cn1c(=O)oc2cc(S(=O)(=O)N3CCCc4ccccc43)ccc21 the results were MT1-MMP reporter inactive, WNV protease inh -1.01 and Hsc70 ATP site 1.6%.

Some of these compounds in order of length of the SMILES, smallest number first.
For CCOC(=O)N1CCN(C(=O)Cc2ccc(C)cc2)CC1 the results were MT1-MMP reporter inactive, WNV protease inh -1.25 and Hsc70 ATP site -0.3%.
`CCCn1c(SCC(=O)Nc2c(C)cccc2C)nnc1C(C)C` gave MT1-MMP reporter inactive, WNV protease inh 2.24 and Hsc70 ATP site 3.9%.
O=C(OCCN1C(=O)c2ccccc2C1=O)c1cc2ccccc2o1 was read as MT1-MMP reporter inactive, WNV protease inh 0.11 and Hsc70 ATP site 2.1%.
O=S(=O)(NCCOC12CC3CC(CC(C3)C1)C2)c1cccc2nsnc12 was read as MT1-MMP reporter inactive, WNV protease inh -1.21 and Hsc70 ATP site 4.3%.

(list continues)
`CC(C)C[C@H](NC(=O)OC(C)(C)C)c1nnc(SCc2cccc(F)c2)o1` gave MT1-MMP reporter inactive, WNV protease inh 0.39 and Hsc70 ATP site -9.6%.
COC(=O)c1ccc(Cn2cnc3c(cnn3-c3ccc(Cl)cc3)c2=O)o1 was read as MT1-MMP reporter inactive, WNV protease inh 0.95 and Hsc70 ATP site 4.8%.
For CN(C)C(=O)CSc1nnc2sc3ccccc3n12 the results were MT1-MMP reporter inactive, WNV protease inh 0.04 and Hsc70 ATP site 3.9%.
O=C(Nc1ccc(S(=O)(=O)NC2CCCCC2)cc1)c1ccc(Br)o1 was read as MT1-MMP reporter inactive, WNV protease inh -1.06 and Hsc70 ATP site 2.9%.
Cc1nn(-c2cc(N3CCOCC3)ccc2N)c(=O)c2ccccc12 was read as MT1-MMP reporter inactive, WNV protease inh 0.53 and Hsc70 ATP site -2.2%.
`CC1COC2C(O1)N(S(C)(=O)=O)CCN2S(C)(=O)=O` (stereo not given) gave MT1-MMP reporter inactive, WNV protease inh 2.83 and Hsc70 ATP site 4.9%.
Screening Cn1c2ccccc2c2ncn(Cc3ccco3)c(=O)c21 returned MT1-MMP reporter inactive, WNV protease inh 0.77 and Hsc70 ATP site -5.5%.
Screening C/C(N)=C(/C#N)C(=O)CSc1nnc(Nc2cccc(C)c2C)s1 returned MT1-MMP reporter inactive, WNV protease inh 0.43 and Hsc70 ATP site 1.7%.
Screening CCS(=O)(=O)/N=C(\N)c1ccccc1 returned MT1-MMP reporter inactive, WNV protease inh 1.18 and Hsc70 ATP site 4.6%.
For C=CCn1c(SCC(=O)Nc2ccc(C(=O)OCC)cc2)nnc1-c1cccs1 the results were MT1-MMP reporter inactive, WNV protease inh -0.49 and Hsc70 ATP site 0.8%.
For c1ccc(OCCOc2ncnc3ccccc23)cc1 the results were MT1-MMP reporter inactive, WNV protease inh 1.24 and Hsc70 ATP site 0.9%.
CCOc1ccc(C(c2nnnn2Cc2ccccc2)N2CCN(C(=O)c3ccco3)CC2)cc1 (stereo not given) was read as MT1-MMP reporter inactive, WNV protease inh -0.34 and Hsc70 ATP site -1.9%.
For Cc1ccccc1CS(=O)(=O)CCC(=O)NCCN1CCN(c2cccc(Cl)c2)CC1 the results were MT1-MMP reporter inactive, WNV protease inh 0.36 and Hsc70 ATP site -1.3%.
CCOC(=O)c1c(NC(=O)CCN2CCOCC2)sc2c1CC(C)(C)OC2 was read as MT1-MMP reporter inactive, WNV protease inh 0.3 and Hsc70 ATP site -8.3%.
Screening CCOC(=O)Nc1ccc2c(c1)N(C(=O)OC)c1ccccc1CC2 returned MT1-MMP reporter inactive, WNV protease inh 0.43 and Hsc70 ATP site -6.6%.
Screening Cc1ccc(-n2c(Cc3cccn3C)nnc2SCC(=O)Nc2nnc(C)s2)cc1 returned MT1-MMP reporter inactive, WNV protease inh 0.94 and Hsc70 ATP site -0.7%.
For Cc1ccc2nc(-c3ccccc3)cc(C(=O)O)c2c1 the results were MT1-MMP reporter inactive, WNV protease inh 0.62 and Hsc70 ATP site -1.9%.
`CC1(C)CC(=O)C2=C(C1)Oc1ncn(CCCO)c(=N)c1C2c1ccccc1` (stereo not given) gave MT1-MMP reporter inactive, WNV protease inh -0.19 and Hsc70 ATP site 1.1%.
CCOC(=O)C1=C(C)N=C2SCCC(=O)N2C1c1ccc(C(=O)OC)cc1 (stereo not given) was read as MT1-MMP reporter inactive, WNV protease inh 0.2 and Hsc70 ATP site 4.3%.
`CCS(=O)(=O)N1CCC(C(=O)NCCCN2CCN(c3ccccc3F)CC2)CC1` gave MT1-MMP reporter inactive, WNV protease inh 0.18 and Hsc70 ATP site 2.8%.
Screening CC(=O)Nc1ccc(-n2cnnn2)cc1 returned MT1-MMP reporter inactive and Hsc70 ATP site 3.0%.
Screening CCCC(CCC)n1[nH]c(=O)c2c(C)cc(C)nc21 returned MT1-MMP reporter inactive, WNV protease inh 0.28 and Hsc70 ATP site -2.1%.
Screening CCN(CCCNC(=O)CCNC(=O)Cn1cnc2ccccc2c1=O)c1ccccc1 returned MT1-MMP reporter inactive, WNV protease inh -1.04 and Hsc70 ATP site 4.0%.
COCCOC(=O)c1c(C)oc2ccc(NS(=O)(=O)c3ccc(F)cc3)cc12 was read as MT1-MMP reporter inactive, WNV protease inh 0.46 and Hsc70 ATP site 2.2%.
`CC(=O)c1c(C)[nH]c(C(=O)OCC(=O)N2CCc3ccccc32)c1C` gave MT1-MMP reporter inactive and Hsc70 ATP site -4.1%.
For O=S(=O)(Nn1cnnc1)c1ccccc1 the results were MT1-MMP reporter inactive and Hsc70 ATP site 3.3%.
Cc1cc(=O)oc2c(CN3CCN(C)CC3)c(O)c(Cl)cc12 was read as MT1-MMP reporter inactive, WNV protease inh 6.12 and Hsc70 ATP site -1.3%.
CCn1cc(C(=O)Nn2cnnc2)c(=O)c2ccc(C)nc21 was read as MT1-MMP reporter inactive, WNV protease inh 0.05 and Hsc70 ATP site -2.0%.
`Cc1noc(C)c1CSc1nnnn1-c1ccc(Cl)cc1` gave MT1-MMP reporter inactive, WNV protease inh 0.74 and Hsc70 ATP site 1.0%.
Cc1cc(C)nc(SCC(=O)N2CCC(C(N)=O)CC2)n1 was read as MT1-MMP reporter inactive, WNV protease inh 0.04 and Hsc70 ATP site 2.2%.
Screening CCOc1ccccc1N1CC(C(=O)Nc2ccccc2N2CCOCC2)CC1=O (stereo not given) returned MT1-MMP reporter inactive, WNV protease inh 0.51 and Hsc70 ATP site -1.4%.
CCCSc1nc2c(cnn2-c2ccc(F)cc2)c(=O)[nH]1 was read as MT1-MMP reporter inactive, WNV protease inh 0.32 and Hsc70 ATP site 4.5%.
For COc1ccc(-n2ncc3c(NCC4CCCO4)ncnc32)cc1 (stereo not given) the results were MT1-MMP reporter inactive and Hsc70 ATP site 0.8%.
`O=C(CN1CCOCC1)Nc1cc(Cl)ccc1Cl` gave MT1-MMP reporter inactive, WNV protease inh -0.36 and Hsc70 ATP site -3.5%.
Screening Cc1ccc(CN2C(=O)CCC2C(=O)NCCCN2CCOCC2)cc1 (stereo not given) returned MT1-MMP reporter inactive, WNV protease inh -0.62 and Hsc70 ATP site -0.6%.
Screening CCCN1CC=C2C(C#N)=C(N)C(C#N)(C#N)C(c3cc(OC)ccc3OC)C2C1 (stereo not given) returned MT1-MMP reporter inactive, WNV protease inh -0.22 and Hsc70 ATP site 51.5%.
`CC(C)N(Cc1nc(-c2ccccc2)no1)S(=O)(=O)c1ccccc1` gave MT1-MMP reporter inactive, WNV protease inh 1.26 and Hsc70 ATP site -2.9%.
Screening C=CCc1c(C)nc(C)nc1N/N=C/c1ccc([N+](=O)[O-])cc1 returned MT1-MMP reporter inactive and Hsc70 ATP site 3.4%.
`O=c1cc(Nc2ccc3c(c2)OCCO3)[nH]c(=O)n1-c1ccc(Cl)cc1` gave MT1-MMP reporter inactive, WNV protease inh -0.08 and Hsc70 ATP site 3.5%.
Nc1sc2c(c1C(=O)NC1CCS(=O)(=O)C1)CCCC2 (stereo not given) was read as MT1-MMP reporter inactive, WNV protease inh -2.93 and Hsc70 ATP site 4.2%.
`O=C(CSc1n[nH]c(-c2ccco2)n1)Nc1sc2c(c1C(=O)Nc1ccccc1)CCCC2` gave MT1-MMP reporter inactive, WNV protease inh -0.5 and Hsc70 ATP site 5.2%.
Screening CCC(C)N(C(=O)Cn1nnc2ccccc21)C(C(=O)NCc1ccco1)c1cccc(OC)c1 (stereo not given) returned MT1-MMP reporter inactive, WNV protease inh 0.87 and Hsc70 ATP site -5.6%.
`Cn1cc(C(c2ccccn2)c2cn(C)c3ccccc23)c2ccccc21` gave MT1-MMP reporter inactive and Hsc70 ATP site 1.5%.
CCNc1nc(NCC)nc(C(=O)Nc2ccccc2)n1 was read as MT1-MMP reporter inactive and Hsc70 ATP site 9.2%.
CCCCCCCn1c(=N)n(CC(=O)c2ccco2)c2ccccc21 was read as MT1-MMP reporter inactive and Hsc70 ATP site 2.2%.
For CCn1c(=O)c2c(nc(SCC(=O)NCC3CCCO3)n2C)n(C)c1=O (stereo not given) the results were MT1-MMP reporter inactive, WNV protease inh -0.45 and Hsc70 ATP site 5.8%.
Screening CCOc1ccc(C(=O)Nc2c3c(nn2-c2ccc(C)cc2)CS(=O)C3)cc1OCC (stereo not given) returned MT1-MMP reporter inactive, WNV protease inh -0.53 and Hsc70 ATP site 0.1%.
Screening CCn1nnnc1SCC(=O)N1c2ccccc2CCc2ccccc21 returned MT1-MMP reporter inactive, WNV protease inh -0.35 and Hsc70 ATP site 5.5%.
`CCOC(=O)Cn1c(CN2CCOCC2)nc2c1c(=O)[nH]c(=O)n2C` gave MT1-MMP reporter inactive, WNV protease inh -0.63 and Hsc70 ATP site -0.4%.
Screening O=C1CC(N2CCN(c3ccccc3Cl)CC2)C(=O)N1c1ccc(F)cc1 (stereo not given) returned MT1-MMP reporter inactive, WNV protease inh 1.66 and Hsc70 ATP site -70.6%.
For COc1ccc(C2C=C(c3ccc(C)cc3)Nc3ncnn32)cc1 (stereo not given) the results were MT1-MMP reporter inactive, WNV protease inh 1.48 and Hsc70 ATP site 18.7%.
`COc1ccc(S(=O)(=O)N2CCC(C(=O)Nc3cccc(C(C)=O)c3)CC2)cc1C` gave MT1-MMP reporter inactive, WNV protease inh -0.96 and Hsc70 ATP site -1.7%.
